Yeast UUG start: modulators of start codon recognition fidelity in yeast. activity score, % at 18.7 µM. S. cerevisiae UUG-firefly luciferase reporter, luminescence/redox ratio. 350,000 tested, 0.13% active;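 active = replicate mean at a twofold rise or more, about +100% in these data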;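 note: firefly luciferase made from a UUG start codon reports start codon fidelity; reporter light over untreated wells divided by growth signal over untreated wells; some hits fall short of that in this replicate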
Active calls of the source: *. This is a subset. The share of hits here may be higher or lower than overall.

Yeast UUG start	SMILES
-8.9	CO[C@@H]1CN(C)C(=O)c2ccc(NC(=O)Nc3ccccc3F)cc2OC[C@H](C)N(C)C[C@H]1C
10.2	C[C@H](CO)N1C[C@H](C)[C@@H](CN(C)C(=O)c2ccccc2)OCc2ccccc2-c2ccccc2C1=O
-9.1	COc1ccccc1S(=O)(=O)N1CC[C@@H]2[C@H]1c1cc(-c3ccc(C#N)cc3)ccc1N(C)[C@H]2CO
14.6	COc1ccccc1NC(=O)N1CCCCN2[C@H](CO)[C@H](c3ccc(-c4cccc(F)c4)cc3)[C@H]2C1
-2.5	CN1CCN(C(=O)C[C@@H]2CC[C@H]3[C@@H](COC[C@@H](O)CN3C(=O)Nc3cc(Cl)cc(Cl)c3)O2)CC1
-13.0	CNC[C@@H]1Oc2ccc(NS(=O)(=O)c3ccc(C)cc3)cc2CC(=O)N([C@@H](C)CO)C[C@@H]1C
-9.6	C/C=C/c1ccc([C@@H]2[C@H](CO)N[C@H]2CN(C(=O)c2ccccc2F)C(C)C)cc1
6.0	CO[C@@H]1CN(C)C(=O)c2cc(NC(=O)C3CCCC3)ccc2OC[C@@H](C)N(CCC(F)(F)F)C[C@@H]1C
-17.0	O=C(NC1CCCC1)N1CCCCN2[C@H](C1)[C@@H](c1ccc(-c3cccnc3)cc1)[C@@H]2CO
-1.4	C[C@@H]1CN([C@@H](C)CO)C(=O)c2cc(NS(=O)(=O)c3ccc(F)cc3)ccc2O[C@@H]1CN(C)CC1CC1
9.0	CCNC(=O)[C@H]1[C@H](CO)[C@H]2Cn3c(ccc(-c4cccc(F)c4)c3=O)[C@@H]1N2C(=O)c1ccccn1
-5.6	C[C@H]1CN([C@@H](C)CO)C(=O)c2cccc(NC(=O)c3ccc(-c4nccs4)cc3)c2O[C@@H]1CN(C)Cc1ccc2c(c1)OCO2
2.0	CN(C)C(=O)c1cccc(-c2ccc3c(c2)[C@H]2[C@H](CCN2C(=O)c2ccccc2F)[C@H](CO)N3)c1
9.4	CCCN1[C@@H]2c3ccc(-c4ccncc4)c(=O)n3C[C@H]1[C@H](CO)[C@H]2C(=O)NCCc1cn(C)cn1
-6.5	C[C@H]1CN([C@@H](C)CO)C(=O)c2cccc(NC(=O)Nc3ccccc3)c2O[C@H]1CN(C)S(=O)(=O)c1ccc(F)cc1
12.6	CC=Cc1ccc2n(c1=O)C[C@@H]1[C@@H](CO)[C@H](C(=O)NCC3CC3)N(Cc3ccncc3)[C@H]21 (mixture of isomers)
6.5	C/C=C/c1ccc([C@@H]2[C@@H](CO)N(C(=O)NC(C)C)[C@H]2CN(C)C(=O)CC)cc1
-7.7	O=C(Nc1ccccc1F)N1C[C@H]2[C@@H](c3ccccc31)[C@@H](CO)N2C(=O)Cc1ccccc1
-1.3	Cc1ccc(S(=O)(=O)N(C)C[C@@H]2OCc3ccccc3-c3c(n(C)c4ccccc34)C(=O)N([C@@H](C)CO)C[C@@H]2C)cc1
-18.6	C[C@@H]1CN([C@H](C)CO)C(=O)c2cccc(NC(=O)C3CC3)c2O[C@@H]1CN(C)Cc1ccc(-c2ccccc2)cc1
-9.0	COc1ccccc1-c1ccc([C@H]2[C@H](CO)N3CCCCN(Cc4ccncc4)C[C@@H]23)cc1
41.1	CC(=O)N1CCCCN2[C@H](CO)[C@@H](c3ccc(C#Cc4ccccc4F)cc3)[C@H]2C1
-17.3	CCS(=O)(=O)N1CCCCN2[C@H](CO)[C@@H](c3ccc(C#CC(C)(C)O)cc3)[C@H]2C1
-7.7	CC(=O)N1[C@H](CO)[C@@H](c2ccccc2)[C@@H]1CN(C)C(=O)c1ccccc1F
-0.3	COc1ccc(-c2ccc([C@@H]3[C@@H](CO)N4CCCCN(C(=O)c5ccc(F)cc5)C[C@@H]34)cc2)cc1

By substructure, the compounds so far containing an aryl methoxy group (four)
Yeast UUG start	SMILES
-9.1	COc1ccccc1S(=O)(=O)N1CC[C@@H]2[C@H]1c1cc(-c3ccc(C#N)cc3)ccc1N(C)[C@H]2CO
14.6	COc1ccccc1NC(=O)N1CCCCN2[C@H](CO)[C@H](c3ccc(-c4cccc(F)c4)cc3)[C@H]2C1
-9.0	COc1ccccc1-c1ccc([C@H]2[C@H](CO)N3CCCCN(Cc4ccncc4)C[C@@H]23)cc1
-0.3	COc1ccc(-c2ccc([C@@H]3[C@@H](CO)N4CCCCN(C(=O)c5ccc(F)cc5)C[C@@H]34)cc2)cc1

More results follow.
Yeast UUG start	SMILES
7.4	Cc1noc(C)c1NC(=O)N(C)C[C@@H]1Oc2c(NC(=O)c3ccc(-c4nccs4)cc3)cccc2C(=O)N([C@@H](C)CO)C[C@@H]1C
-15.3	C[C@H]1CN([C@@H](C)CO)C(=O)c2cccc(NC(=O)C3CCOCC3)c2O[C@@H]1CN(C)S(=O)(=O)c1cn(C)cn1
-4.7	C[C@H]1CN([C@@H](C)CO)C(=O)c2cccc(NS(=O)(=O)c3ccc(F)cc3)c2O[C@H]1CN(C)Cc1ccc(C(=O)O)cc1
-4.2	COc1cccc(C(=O)N2C[C@H]3[C@@H](c4ccccc42)[C@@H](CO)N3C(=O)c2ccc(F)cc2)c1
-7.6	CC(=O)NC[C@@H]1[C@@H](c2ccc(-c3cccnc3)cc2)[C@@H](CO)N1C(=O)C1CC1
-4.8	C[C@H](CO)N1C[C@H](C)[C@H](CN(C)C(=O)Nc2cccc3ccccc23)Oc2ncc(-c3cccc(C(F)(F)F)c3)cc2C1=O
12.8	COCC#Cc1ccc([C@@H]2[C@H](CO)N3CCCCN(C(=O)NC4CCCC4)C[C@@H]23)cc1
-0.4	C[C@@H]1CN([C@H](C)CO)C(=O)c2cccc(NC(=O)Nc3ccc(C(F)(F)F)cc3)c2O[C@@H]1CN(C)Cc1ccncc1
5.7	CO[C@H]1CN(C)C(=O)c2ccc(NC(=O)C3CCCC3)cc2OC[C@H](C)N(C)C[C@H]1C
-1.0	C[C@H](CO)N1C[C@H](C)[C@H](CN(C)C)Oc2ccc(NC(=O)CCCN(C)C)cc2C1=O
15.5	Cc1ccc(S(=O)(=O)N(C)C[C@@H]2Oc3ccc(NC(=O)C4CC4)cc3CC(=O)N([C@H](C)CO)C[C@H]2C)cc1
-0.1	O=S(=O)(c1cccs1)N1CCCCN2[C@H](CO)[C@@H](c3ccc(Br)cc3)[C@@H]2C1
-7.0	COCC(=O)Nc1ccc2c(c1)C(=O)N(C)C[C@H](OC)[C@@H](C)CN(Cc1cncnc1)[C@H](C)CO2
-14.1	COc1ccc(-c2ccc3c(c2)[C@H]2[C@H](CCN2C(=O)c2cnccn2)[C@H](CO)N3)cc1
-11.3	CO[C@H]1CN(C)C(=O)c2ccc(NC(=O)C3CC3)cc2OC[C@H](C)N(C(=O)NC(C)C)C[C@H]1C
-6.2	CCN(C[C@@H]1[C@@H](c2ccccc2)[C@H](CO)N1CC1CC1)C(=O)c1ccccn1
2.0	CCCC(=O)Nc1ccc2c(c1)OC[C@@H](C)N(Cc1ccccc1F)C[C@H](C)[C@H](OC)CN(C)C2=O
-9.3	CN(C)CC#Cc1ccc([C@H]2[C@H](CO)N3CCCCN(C(=O)c4ccc5c(c4)OCO5)C[C@@H]23)cc1
-15.8	COc1ccc(CN(C)C[C@H]2Oc3c(NC(=O)c4cnccn4)cccc3C(=O)N([C@@H](C)CO)C[C@@H]2C)cc1
-7.1	COc1ccc(C#Cc2ccc([C@@H]3[C@@H](CO)N4CCCCN(Cc5ccncc5)C[C@@H]34)cc2)cc1
8.3	C[C@@H]1CN([C@H](C)CO)C(=O)c2cc(NC(=O)c3ccncc3)ccc2O[C@@H]1CN(C)Cc1ccc(C(=O)O)cc1
12.0	CCNC(=O)C[C@H]1CC[C@H]2[C@@H](COC[C@@H](O)CN2S(=O)(=O)c2ccc(Oc3ccccc3)cc2)O1
13.2	C[C@@H]1CN([C@@H](C)CO)C(=O)Cc2cc(NC(=O)C3CCCCC3)ccc2O[C@@H]1CN(C)S(=O)(=O)c1ccccc1
3.5	COc1ccc(S(=O)(=O)N(C)C[C@H]2Oc3ccc(NC(=O)C4CC4)cc3C(=O)N([C@H](C)CO)C[C@H]2C)cc1
-7.0	C[C@H]1CN([C@@H](C)CO)C(=O)Cc2cc(NC(=O)Cc3ccccc3)ccc2O[C@H]1CN(C)C(=O)Nc1ccc(F)cc1

An excerpt from above in order of their number in Yeast UUG start, lowest first:
mol	Yeast UUG start
CN(C)CC#Cc1ccc([C@H]2[C@H](CO)N3CCCCN(C(=O)c4ccc5c(c4)OCO5)C[C@@H]23)cc1	-9.3
Cc1noc(C)c1NC(=O)N(C)C[C@@H]1Oc2c(NC(=O)c3ccc(-c4nccs4)cc3)cccc2C(=O)N([C@@H](C)CO)C[C@@H]1C	7.4
Cc1ccc(S(=O)(=O)N(C)C[C@@H]2Oc3ccc(NC(=O)C4CC4)cc3CC(=O)N([C@H](C)CO)C[C@H]2C)cc1	15.5

The listing continues.
Yeast UUG start	SMILES
14.5	CO[C@@H]1CN(C)C(=O)c2ccc(NC(=O)C3CC3)cc2OC[C@@H](C)N(Cc2ccc(F)cc2)C[C@H]1C
15.3	O=C(NCC1CC1)[C@H]1[C@H](CO)[C@H]2Cn3c(ccc(/C=C/c4ccccc4)c3=O)[C@@H]1N2C(=O)C1CC1
-8.7	CCCN1C[C@H](C)[C@H](OC)CN(C)C(=O)c2ccc(NC(=O)Nc3ccccc3F)cc2OC[C@@H]1C
17.4	CN(C[C@H]1N[C@@H](CO)[C@H]1c1ccc(-c2cccc(F)c2)cc1)S(C)(=O)=O
-4.2	CN1C(=O)c2cc(NC(=O)c3ccccc3Cl)ccc2OC[C@H]2O[C@@H](CC(=O)O)CC[C@H]21
-1.7	C[C@H](CO)N1C[C@H](C)[C@H](CN(C)S(=O)(=O)c2cn(C)cn2)Oc2c(NC(=O)NC3CCCCC3)cccc2C1=O
-10.8	CN(C)C(=O)c1cccc(-c2ccc3c(c2)[C@H]2[C@H](CCN2C(=O)Cc2ccccn2)[C@H](CO)N3C)c1
-9.5	COc1ccc(CN(C)C[C@H]2Oc3c(NS(=O)(=O)c4ccc(F)cc4)cccc3C(=O)N([C@H](C)CO)C[C@@H]2C)cc1
-12.3	O=S(=O)(c1ccccc1)N1CC[C@@H]2[C@H](CO)Nc3ccc(C#Cc4cccc(F)c4)cc3[C@@H]21
-8.9	O=S(=O)(c1ccc(F)cc1)N1CC[C@@H]2[C@H](CO)Nc3ccc(-c4ccccc4F)cc3[C@@H]21
-3.3	C[C@H](CO)N1C[C@H](C)[C@@H](CN(C)Cc2ccc(C(F)(F)F)cc2)Oc2ccc(NC(=O)CCC(F)(F)F)cc2CC1=O
-7.6	CO[C@H]1CN(C)C(=O)c2ccc(NC(=O)Nc3ccccc3F)cc2OC[C@@H](C)N(C)C[C@@H]1C
2.5	C[C@H]1CN([C@@H](C)CO)C(=O)c2cccc(NC(=O)CCCCCC(=O)Nc3ccccc3N)c2O[C@@H]1CN(C)Cc1ccc2c(c1)OCO2
-16.3	Cc1noc(C)c1NC(=O)Nc1ccc2c(c1)C(=O)N([C@H](C)CO)C[C@@H](C)[C@@H](CN(C)C(=O)NC(C)C)O2
1.1	C[C@H]1CN([C@@H](C)CO)C(=O)c2cc(N(C)C)ccc2O[C@H]1CN(C)S(=O)(=O)c1ccc(F)cc1
1.8	CC(=O)N1[C@H](CO)[C@H](c2ccc(-c3ccccc3)cc2)[C@@H]1CNC(=O)C1CC1
-9.0	CCC(=O)Nc1ccc2c(c1)OC[C@H](C)N(Cc1ccccc1)C[C@@H](C)[C@@H](OC)CN(C)C2=O
-1.9	CO[C@@H]1CN(C)C(=O)c2ccc(NS(=O)(=O)c3cn(C)cn3)cc2OC[C@@H](C)N(Cc2cccc(Cl)c2)C[C@H]1C
-14.4	COc1ccc(-c2ccc([C@H]3[C@@H](CO)N4CCCCN(C(=O)c5ccc6c(c5)OCO6)C[C@H]34)cc2)cc1
-7.2	COCC(=O)N(C[C@H]1N[C@@H](CO)[C@@H]1c1ccc(-c2cccnc2)cc1)C(C)C
9.9	COCC(=O)Nc1ccc2c(c1)C(=O)N(C)C[C@@H](OC)[C@@H](C)CN(C(=O)C1CCCC1)[C@H](C)CO2
-10.4	Cn1cnc(S(=O)(=O)N2CC[C@@H]3[C@@H](CO)Nc4ccc(-c5ccc(F)cc5)cc4[C@@H]32)c1
5.7	COCC(=O)Nc1ccc2c(c1)C(=O)N(C)[C@@H]1CC[C@@H](CC(=O)NC3Cc4ccccc4C3)O[C@@H]1CO2
-3.7	CN(C[C@H]1[C@@H](c2ccccc2)[C@@H](CO)N1Cc1ccccn1)S(C)(=O)=O
-3.6	CCC(=O)Nc1ccc2c(c1)C(=O)N(C)C[C@@H](OC)[C@@H](C)CN(CC1CCCCC1)[C@@H](C)CO2
6.3	COC(=O)C[C@H]1CC[C@H]2[C@@H](COc3ccc(NC(=O)c4cc(C)on4)cc3C(=O)N2C)O1
11.0	CC(C)CC#Cc1ccc([C@H]2[C@H]3CN(C(=O)NC4CCCC4)CCCCN3[C@H]2CO)cc1
-2.3	O=C(Nc1ccccc1)N1C[C@@H]2[C@H](c3ccccc31)[C@H](CO)N2C(=O)c1ccncc1
-5.6	CC(=O)NC[C@@H]1[C@H](c2ccc(-c3ccccc3)cc2)[C@H](CO)N1C(=O)C1CCC1
15.7	C[C@@H]1CN([C@@H](C)CO)C(=O)c2c(c3ccccc3n2C)-c2ccccc2CO[C@H]1CN(C)S(C)(=O)=O
0.6	O=C(Nc1cc(F)ccc1F)N1CCCCN2[C@H](CO)[C@H](c3ccc(-c4ccccc4)cc3)[C@@H]2C1
-10.9	COc1ccc(CN(C)C[C@H]2Oc3ccc(NS(=O)(=O)c4cn(C)cn4)cc3C(=O)N([C@H](C)CO)C[C@H]2C)cc1

Assay outcomes deposited in PubChem by Broad Institute.
